TsaE inh – inhibitors of E. coli YjeE (TsaE) | 0.05% of 71,000 active | Potency, µM | purified YjeE, fluorescence polarisation of a bound ADP probe; active = well fitted falling curve; inconclusive = weaker or top-dose-only fall, or a rising curve; inactive = flat or poorly fitted curve;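 note: top concentration of the series not given in the record; excess ADP was the control for the full effect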
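Fluorescence polarization of a BODIPY Texas Red–ADP probe (2 uM) bound to purified YjeE (10 uM) was read after 15 min room-temperature incubation with compounds. Loss of polarization marks inhibitors; ADP serves as titrated control.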
Bst PK mod – alters activity of Bacillus stearothermophilus pyruvate kinase. partly purified Bacillus stearothermophilus pyruvate kinase, luminescence ATP production; ribose 5-phosphate activator present at AC10. Potency, µM. 1.2% of 51,000 active; in the data active means potency below about 11 µM; inconclusive means mostly about 12 µM to 25 µM; inactive means weaker than that;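 the screen sought inhibitors and activators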;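 note: potency is the fitted concentration of half-maximal effect; scaled between full activation by ribose 5 phosphate and full inhibition by luteolin; about four in five hits inhibit and the cells do not say which; series up to 57 µM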
The depositor's hits bear a star; i = inactive; ? = inconclusive; · = not tested or not shown. Some of the compounds tested (hit frequency here may not be typical).

Start of the data: the first 5 records, ahead of the listing:
SMILES	TsaE inh	Bst PK mod
N#Cc1cccc(-c2cncnc2NCc2cccs2)c1	i	·
C=CCOc1ccc(Cl)cc1C(=O)O	i	>57
COCCCN1C(=O)C(=O)/C(=C(/O)c2ccc(OC(C)C)cc2)C1c1cccnc1 (stereo not given)	i	>57
C=CCn1c(CC(=O)OC)csc1=Nc1ccc(C(C)=O)cc1	i	>57
COc1ccc(N(CC(=O)Nc2cccc(SC)c2)S(C)(=O)=O)cc1Cl	i	·

The listing, from the start:
SMILES	TsaE inh	Bst PK mod
N#Cc1cccc(-c2cncnc2NCc2cccs2)c1	i	·
C=CCOc1ccc(Cl)cc1C(=O)O	i	>57
COCCCN1C(=O)C(=O)/C(=C(/O)c2ccc(OC(C)C)cc2)C1c1cccnc1 (stereo not given)	i	>57
C=CCn1c(CC(=O)OC)csc1=Nc1ccc(C(C)=O)cc1	i	>57
COc1ccc(N(CC(=O)Nc2cccc(SC)c2)S(C)(=O)=O)cc1Cl	i	·
Cc1ccc(N(CC(=O)N2CCN(c3ccc(F)cc3)CC2)S(=O)(=O)c2c(C)nn(C)c2C)cc1	i	·
Cc1ccc2oc(=O)n(CCCOc3ccccc3)c2c1	i	>57
CCOC(=O)Cn1cc(C(=O)OC)c2ccccc21	i	>57
O=C(CN1CCN(C(=O)c2cccs2)CC1)NC1CCCCC1	i	>57
CCCCC(=O)Nc1cccc2c1C(=O)N(c1ccccc1)C2=O	i	·
CN(CC(=O)NCC1CCCO1)S(=O)(=O)c1cc(Cl)ccc1Cl (stereo not given)	i	>57
Cc1nc2ccccc2c(=O)n1NC(=O)Nc1ccccc1	i	>57
O=C(NCc1ccco1)c1ccc2c(=O)n(CC3CCCO3)c(=S)[nH]c2c1 (stereo not given)	i	>57
COc1ccc(C(=O)CN2C3=NCCCN3c3ccccc32)cc1OC	i	·
CCOc1cc(C)c(Cl)cc1S(=O)(=O)N(CC)CC	i	>57
CC(C)[C@H](NC(=O)OCc1ccccc1)C(=O)N[C@H](C=O)Cc1ccccc1	i	·
CC(N=c1ccccn1C(=O)Nc1ccc(Cl)cc1)c1ccco1 (stereo not given)	i	>57
Cc1ccccc1CSc1nnc(C)n1N	i	>57
CC(C)NC[C@@H](O)COc1cccc2ccccc12	i	·
COCCn1c(=O)c(-c2ccc(F)cc2)nc2cnc(N(C)C)nc21	i	·
N#CCCN1CCN(S(=O)(=O)c2ccc(S(=O)(=O)N3CCOCC3)cc2)CC1	i	·
CCN1CCN(Cc2ccc(NC(=O)Nc3ccc(SC)cc3)cc2)CC1	i	>57
CS(=O)(=O)N1CCCC(C(=O)N2CCOCC2)C1 (stereo not given)	i	>57
Cc1ccc(CC2CC(=O)N(CCc3ccc4c(c3)OCO4)C2=O)cc1 (stereo not given)	i	·
CC1CCN(S(=O)(=O)c2ccc(NC(=O)CSc3ncccc3C(=O)O)cc2)CC1	i	>57
CN[C@@H]1[C@H](O[C@H]2[C@@H](O[C@@H]3[C@@H](O)[C@@H](O)[C@@H](N=C(N)N)[C@@H](O)[C@@H]3N=C(N)N)O[C@@H](C)[C@]2(O)CO)O[C@H](CO)[C@@H](O)[C@@H]1O	i	·
COc1ccccc1CN1CCC2(CC1)CCN(C(=O)c1cc(C(F)(F)F)cc(C(F)(F)F)c1)CC2	i	·
CCS(=O)(=O)N1CCC(C(=O)NCCCOC)CC1	i	>57
CCCCOc1ccc(CSc2ncn[nH]2)cc1	i	>57
CCOC(=O)c1ccccc1NC(=O)CSc1nnc(Cc2cccn2C)n1-c1ccc(C)cc1	i	>57
O=c1c2ccccc2nc2n1CCCCC2	i	>57
COc1ccc(CCNc2nc(N3CCOCC3)nc(N3CCOCC3)n2)cc1OC	i	>57
COCCn1nnnc1C(c1ccc(O)c(OC)c1)N1CCc2ccccc2C1 (stereo not given)	i	>57
COc1ccccc1OCC(=O)NCCNC(=O)COc1ccccc1OC	i	·
Cc1cc(=O)oc(C)c1C(=O)NCCC(C)C	i	>57
Cc1nc2cnc(Oc3cccc(Cl)c3)nc2n(C2CC2)c1=O	i	·
O=S(=O)(NCC1CCN(S(=O)(=O)c2ccccc2)CC1)c1ccccc1	i	>57
CCCc1[nH]nc2c1C(c1ccc(Br)s1)C(C#N)=C(N)O2 (stereo not given)	i	>57
COC(=O)c1cc(OC)c(OC)cc1NC(=O)c1ccc(Br)o1	i	·
COC(=O)C(C)Oc1ccc2c3c(c(=O)oc2c1)CCCCC3 (stereo not given)	i	>57
Cc1ccc2c(c1)nnn2C1CCN(S(C)(=O)=O)CC1	i	>57
COCCCN1Cc2cccc(C(=O)O)c2C1=O	i	·
CCOc1cc2[nH]c(=O)n(CC3CCC(C(=O)NC4CCCCC4)CC3)c(=O)c2cc1OCC (stereo not given)	i	>57
CCCCNC(=O)c1ccc2c(c1)N(CC)C(=O)CS2	i	>57
CC(CC1C(C#N)=C(N)OC2=C1C(=O)CCC2)c1ccccc1 (stereo not given)	i	·
CCOc1ccc(C(=O)N2CCCC2C(=O)O)cc1 (stereo not given)	i	>57
COC(=O)C1=C(C(=O)c2ccccc2)C(c2ccc(OC)c(OC)c2)Nc2nnnn21 (stereo not given)	i	>57
c1ccc2nc3[nH]cnc3nc2c1	i	·
Cc1nn(-c2ccccc2)c(Cl)c1C1C(C#N)=C(N)OC2=C1C(=O)CCC2 (stereo not given)	i	>57
CCCCCO	i	·
C/C(CC1(O)/C(=N/O)CCc2nonc21)=N\O (stereo not given)	i	·
CCOC(=O)Nc1ccc(S(=O)(=O)N2CCOCC2)cc1	i	>57
C=Cc1ccccc1C=C	i	·
CCOc1ccc2[nH]c(=O)c(CN(CCN3CCOCC3)Cc3nnnn3C(C)(C)CC)cc2c1	i	>57
O=C(NC1CCCc2ccccc21)C1CCN(S(=O)(=O)c2cccc3nonc23)CC1 (stereo not given)	i	>57
CCOc1ccc(N(CC)S(=O)(=O)c2ccc3c(c2)oc(=O)n3C)cc1	i	>57
CN1CCN(c2ncc3nc(CCc4ccccc4)c(=O)n(CCC#N)c3n2)CC1	i	·
CSc1ccc2[nH]c(=O)cc(C)c2c1	i	·
COc1cc(CNC2CCCCCC2)cc(OC)c1O	i	·
Cc1nc2oc3c(NCc4ccccn4)ncnc3c2c2c1COC(C)(C)C2	i	>57
Other compounds follow.
SMILES	TsaE inh	Bst PK mod
CCOC(=O)N1CCN(C(=O)CN(C)S(=O)(=O)c2ccc(OC)c(OC)c2)CC1	i	>57
COC(=O)c1cc(Br)c(=O)n(CCN2CCCCC2)c1	i	>57
CCN(CC)C(=O)CN(c1ccc(F)c(Cl)c1)S(C)(=O)=O	i	>57
COc1ccc(Oc2ncc3ncc(=O)n(CCc4ccccc4)c3n2)cc1	i	·
COC(=O)C(NC(=O)C(NC(=O)c1ccccc1)C(C)C)C(C)C (stereo not given)	i	>57
CCOC(=O)N1CCC(N2Cc3cccc(C(=O)Nc4cc(F)ccc4F)c3C2=O)CC1	i	·
C=CCn1c(SCC(=O)Nc2ccc3c(c2)CCC3)nnc1-c1cccs1	i	>57
O=C(COC(=O)CCC(=O)c1cccs1)NCc1ccco1	i	>57
COc1ccc(CCCc2nnc(SCC(=O)Nc3nccs3)n2C)cc1C	i	>57
CCN(CC)c1cc(Oc2ccccc2)ncn1	i	>57
O=C(NCc1cccs1)C1CCN(S(=O)(=O)c2ccc(Br)s2)CC1	i	>57
CCC(=O)Nc1ccc(F)c(Cl)c1	i	·
O=C(NCCc1ccccc1)c1nc2c(nnn2Cc2ccccc2Cl)c(=O)[nH]1	i	i
O=S(=O)(c1ccccc1)N1CCN(c2ncnc3sc(-c4ccccc4)cc23)CC1	i	>57
NS(=O)(=O)c1ccc(S(=O)(=O)N(Cc2ccccc2F)CC2CCCO2)cc1 (stereo not given)	i	>57
COC(=O)C1=C(C)NC2=C(C(=O)CCC2)C1c1cccc(C)n1 (stereo not given)	i	>57
CCN(CC)S(=O)(=O)c1ccc2oc(C(=O)Nc3ccc(OC)cc3OC)c(C)c2c1	i	>57
O=C(NC1CCCCC1)C1c2ccccc2C(=O)N1Cc1ccco1 (stereo not given)	i	>57
C[C@H](C(=O)C=[N+]=[N-])N1C(=O)c2ccccc2C1=O	i	>57
Cc1ccc(N(CC(=O)Nc2ccc(C)cn2)S(=O)(=O)c2c(C)nn(C)c2C)cc1	i	>57
Cc1c(NC(=O)CN2C(=O)c3ccccc3S2(=O)=O)c(=O)n(-c2ccccc2)n1C	i	>57
COc1ccc(C)cc1NS(=O)(=O)c1cccc2cccnc12	i	·
Nc1c(S(=O)(=O)O)cc(S(=O)(=O)O)c2ccc(N=Nc3ccccc3)c(O)c12	i	·
Cc1cc(NC(=O)CCC(=O)N(CCc2ccccc2)C(C(=O)NC2CCCC2)c2ccco2)no1 (stereo not given)	i	>57
O[C@@H]1CC[C@H]2Cc3ccccc3N=C21	i	·
Cc1cc(C)c(C#N)c(N2CCCC2)n1	i	>57
COc1ccc(-n2c(=O)c(-c3cccc(F)c3)nc3cncnc32)cc1	i	·
COc1ccccc1N1CCN(C(=O)CSc2nc(-c3ccco3)cc(C(F)(F)F)n2)CC1	i	>57
COc1cc(C2=NOC(C(=O)N3CCCc4ccccc43)C2)cc(OC)c1OC (stereo not given)	i	·
CCCCN(C)C(=O)c1c[nH]c2ccc(S(=O)(=O)N3CCOCC3)cc2c1=O	i	·
CC(C)(O)/C=C1/Oc2ccccc2C1N1CCCCC1 (stereo not given)	i	>57
CCc1ccc(NC(=O)CSC2=C(C#N)C(c3ccc4c(c3)OCO4)CC(=O)N2)cc1 (stereo not given)	·	>26
C/C=C/CSc1nc2c(c(=O)[nH]c(=O)n2C)n1CCC	i	>57
Cc1ccc(-n2ncc3c(=O)n(CC(=O)N4CCCCCC4)cnc32)cc1	i	>11
Cn1c2ccccc2c2c(C(=O)N3CCN(c4ccc(F)cc4)CC3)cn(C3CCCC3)c(=O)c21	i	>57
O=C(Nc1ccc2c(c1)OCO2)C1CC(c2ccccc2Cl)=NO1 (stereo not given)	i	>57
CC(Oc1ccccc1)C(=O)N1CCCc2ccccc21 (stereo not given)	i	·
C=CCOC(=O)COc1ccc2c(C)c(C)c(=O)oc2c1	i	·
CCOC(=O)Cc1nnc(NC(=O)c2ncn[nH]2)s1	i	>57
CCc1c(O)nc(SCC(N)=O)n(-c2ccccc2F)c1=O	i	>57
Cc1c(C)[n+](=O)c2c(n1[O-])CCCCC2	i	>57
COc1ccccc1-n1cnc2cc(NC(C)=O)ccc21	i	>57
Cc1ccc(Cl)c(OCC(=O)Nc2ccc3c(c2)OCCO3)c1	i	·
Cc1ccc2cc3c(NC(=O)c4ccco4)nn(CC(C)C)c3nc2c1	i	>57
Cc1nc2scc(-c3cccs3)c2c(=O)o1	i	·
O=C(CC(C(=O)O)C1CCCO1)NCCc1ccc2c(c1)OCO2 (stereo not given)	i	>57
CCOc1ccc(C(=O)NCC(=O)OC(C)C(=O)NCc2ccco2)cc1OCC (stereo not given)	i	>57
COc1ccc(CNC(=O)NC2CCCCC2)cc1	i	>57
O=C1CC(c2ccc(S(=O)(=O)NCc3ccncc3)cc2)CN1 (stereo not given)	i	·
O=C(NCC(c1cccnc1)N1CCN(c2ccccc2F)CC1)C1CCCCC1 (stereo not given)	i	>57
O=C(NCCS(=O)CCNC(=O)C(F)(F)F)C(F)(F)F	i	>57
CCCC(=O)Nc1nnc(CC(=O)N2CCCC2)s1	i	>57
Cc1cccc2c(=O)cc(C)n(CC(=O)N3CCCCC3)c12	i	>57
Cc1ccc(S(=O)(=O)NC2=NCN(CCc3ccccc3)CN2)cc1	i	>57
O=C(O)c1ccccc1-c1ccccc1C(=O)Nc1ccc2c(c1)Cc1cc(F)ccc1-2	i	·
CCCCN(c1ccccc1)c1ncnc2c1cnn2C	i	·
Cn1nnc2cc(C(=O)NCCC3=CCCCC3)ccc21	i	·
CCc1cccc2c(C#N)cn(CC(=O)NCCOC)c12	i	>57
CC(C)CC(=O)N(c1ccc(F)cc1)C1C=CS(=O)(=O)C1 (stereo not given)	i	>57
Nc1[nH]nc2nc3ccccc3nc12	i	·

Structural class: the entries above with a COOH group (6)
SMILES	TsaE inh	Bst PK mod
C=CCOc1ccc(Cl)cc1C(=O)O	i	>57
CC1CCN(S(=O)(=O)c2ccc(NC(=O)CSc3ncccc3C(=O)O)cc2)CC1	i	>57
COCCCN1Cc2cccc(C(=O)O)c2C1=O	i	·
CCOc1ccc(C(=O)N2CCCC2C(=O)O)cc1 (stereo not given)	i	>57
O=C(CC(C(=O)O)C1CCCO1)NCCc1ccc2c(c1)OCO2 (stereo not given)	i	>57
O=C(O)c1ccccc1-c1ccccc1C(=O)Nc1ccc2c(c1)Cc1cc(F)ccc1-2	i	·

The list goes on:
SMILES	TsaE inh	Bst PK mod
CC(C)CC(=O)Nc1nnn(C)n1	i	>57
COc1ccccc1N/C(N)=N/c1nc(CSc2ccc(C)cc2)cc(=O)[nH]1	i	>57
O=C(O)CCc1c2ccc(=O)c(O)c-2oc2c(O)c(O)ccc12	i	·
CCCNC(=O)c1c[nH]c2ccc(S(=O)(=O)N(C)c3ccc(OCC)cc3)cc2c1=O	i	>57
CCCN(CCC)CCCNC(=O)CC1Nc2ccccc2NC1=O (stereo not given)	i	>57
COc1ccc(C2=NOC(C(=O)N3CCN(c4ccccc4OC)CC3)C2)cc1 (stereo not given)	i	·
Cc1ccc(S(=O)(=O)N2CCC(C(=O)OCC(=O)N3CC(=O)Nc4ccccc43)CC2)cc1	i	?

Compound activity from PubChem.
